Assay outcomes (PubChem)
Six1-Eya2 blk: Six1/Eya2 interaction inhibition; AID 651725; AlphaScreen GST-Six1/His-Eya2 binding, biochemical; hits give low values; control for the full effect not named in the record; Q15475+O00167; activity change, % (concentration not given with the values); actives 0.56% (n = 360,000); in the data active = activity change below about -65%; inconclusive = about -30% to -65%; inactive = above about -30%; also: % is scaled to controls: 0 for no effect and ±100 for the full control effect
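Homogeneous AlphaScreen proximity assay pairing GST-Six1 with His-tagged Eya2 (added as 5X mix: 250 nM and 500 nM) in 50 mM Tris pH 8.0, 300 mM NaCl, 1 mM TCEP. Glutathione donor and nickel acceptor beads; 1 h, 37 °C, dark.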
D2 agonist: activates the human D2 dopamine receptor; P14416; DiscoveRx PathHunter D2 beta-arrestin, luminescence, 90 min; 100% = 57 uM dopamine signal; actives 0.084% (n = 360,000); activation, % (no concentration beside the values); in the data active = activation above about 40%; inconclusive = about 15% to 40%; inactive = below about 15%; also: compound concentration not given in the record; the text of the record calls up to 30% inactive
Target sequence (P14416 whole entry, looked up): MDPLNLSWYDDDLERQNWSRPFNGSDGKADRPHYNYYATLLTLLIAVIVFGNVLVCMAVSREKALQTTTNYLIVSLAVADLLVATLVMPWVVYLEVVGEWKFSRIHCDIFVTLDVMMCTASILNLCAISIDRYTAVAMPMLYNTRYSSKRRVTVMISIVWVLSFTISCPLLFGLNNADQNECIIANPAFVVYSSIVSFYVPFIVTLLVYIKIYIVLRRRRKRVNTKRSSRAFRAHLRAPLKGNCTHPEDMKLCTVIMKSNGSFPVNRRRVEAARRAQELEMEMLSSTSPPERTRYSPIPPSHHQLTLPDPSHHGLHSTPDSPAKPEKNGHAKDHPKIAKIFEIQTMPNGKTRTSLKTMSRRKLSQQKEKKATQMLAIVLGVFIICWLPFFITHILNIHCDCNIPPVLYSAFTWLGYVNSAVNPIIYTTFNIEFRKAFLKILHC
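DiscoveRx PathHunter D2 beta-arrestin cells (2,100/well) attached overnight, then compound-stimulated 90 min at 37 C in HBSS/10 mM HEPES/0.1% Tween-20 buffer; beta-galactosidase complementation read by luminescence after 1 h at ambient temperature. Dopamine 57 uM final (EC100) as control.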
TRPML1 blocker: inhibitors of human TRPML1 channel | Q9GZU1 | TRPML1-inducible cells, Ca2+ dye fluorescence, FDSS; hits give low values; inhibition of EC80 agonist-evoked calcium signal | activity change, negative = inhibition, % (concentration not given with the values) | actives 0.02% (n = 390,000) | AID 624415; in the data active means activity change below about -50%; inconclusive means about -30% to -50%; inactive means above about -30%;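 also: stimulus is agonist 54-4 at its EC80 concentration; % is scaled to controls: 0 for no effect and ±100 for the full control effect; compound concentration not given in the record; the text of the record puts the active cut at -80%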
Target sequence (Q9GZU1 whole entry, looked up): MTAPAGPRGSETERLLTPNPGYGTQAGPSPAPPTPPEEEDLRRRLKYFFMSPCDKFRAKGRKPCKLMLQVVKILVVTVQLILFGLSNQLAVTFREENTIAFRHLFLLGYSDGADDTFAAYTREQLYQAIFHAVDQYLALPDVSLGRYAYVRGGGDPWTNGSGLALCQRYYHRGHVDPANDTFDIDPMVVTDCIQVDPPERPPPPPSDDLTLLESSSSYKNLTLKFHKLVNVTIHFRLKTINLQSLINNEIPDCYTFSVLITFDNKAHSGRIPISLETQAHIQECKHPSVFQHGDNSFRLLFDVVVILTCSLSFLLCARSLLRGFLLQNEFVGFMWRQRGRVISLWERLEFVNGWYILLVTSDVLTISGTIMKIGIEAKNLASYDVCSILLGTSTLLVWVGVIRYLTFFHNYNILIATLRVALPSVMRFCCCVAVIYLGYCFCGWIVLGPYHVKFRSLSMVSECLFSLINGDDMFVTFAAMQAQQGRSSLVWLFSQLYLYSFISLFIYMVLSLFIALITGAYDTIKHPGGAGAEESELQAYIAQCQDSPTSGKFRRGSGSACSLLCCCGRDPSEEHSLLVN
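Calcium fluorescence in TRPML1-DL cells induced overnight with Tet: a 110 s read after compound pin addition, then a 110 s antagonist read after challenge with 54-4 at 4 uM final (EC80).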
CtBP-E1A inh: CtBP/E1A binding inhibition | AID 651724 | activity change, % (no concentration beside the values) | actives 0.49% (n = 340,000) | AlphaScreen GST-E1A/His-CtBP binding, 1536-well; hits give low values; control for the full effect not named in the record; in the data active means activity change below about -65%; inconclusive means about -30% to -65%; inactive means above about -30%; also: % is scaled to controls: 0 for no effect and ±100 for the full control effect; compound concentration not given in the record
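Steps: dispense buffer (Tris pH 8.0, NaCl 300 mM, TCEP 1 mM, BSA, Tween 20); add 5X protein mix (GST-E1A, His-CtBP, 125 nM each); pin 23 nL compound; 2 h at 37 °C, dark; add 5X beads (50 ug/mL); 1 h; read.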
TRPML1 agonist: agonists of human TRPML1 channel; TRPML1-expressing cells, Ca2+ dye fluorescence, FDSS; host cell line not named in the record; reference of the full effect not given here; activation, % (concentration not given with the values); actives 0.12% (n = 410,000); in the data active = activation above about 50%; inconclusive = about 30% to 50%; inactive = below about 30%; also: 0% is about no effect; the text of the record puts the active cut at 80%
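Calcium fluorescence on an FDSS kinetic reader gave the read-out. Tet-induced TRPML1-DL cells were plated overnight, dye-loaded (Ca8 with quencher, 45-90 min, room temperature, dark), then read 110 s after compound addition, and again 110 s after 4uM final 54-4 (EC80).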
PINK1 modulator: changes PINK1 expression. PINK1 immunofluorescence, high-content cytometry, 24 h. Potency, µM (doses to about 76.6 µM), inactives show top-dose activation (PINK1 increase), hits mostly activators. actives 0.2% (n = 410,000). AID 624263; active = well fitted activation curve with a large enough effect; inconclusive = small, poorly fitted or top-dose-only effect; inactive = flat fitted curve, though single readings scatter; cell line not stated here;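 also: potency is read from the fitted curve at half-maximal effect; % of control where 0% means no effect; nearly all actives have a fitted effect of over 65% in size; a mitochondrial uncoupler was the plate control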
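A stable cell line was treated with compounds at 5 concentrations for 24 hours, with CCCP as control. PINK1 levels and mitochondrial localization were measured by immunofluorescence with mitochondrial, cell and nuclear markers after fixation, read by laser-scanning cytometry.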
Active calls of the source: *; ? = inconclusive; / = not tested or not shown; & = joins results of further samples; [ ] = another dose, or the depositor's remark.

SMILES | Six1-Eya2 blk | D2 agonist | TRPML1 blocker | CtBP-E1A inh | TRPML1 agonist | PINK1 modulator
CCCCn1c(N2CCC(Cc3ccccc3)CC2)nc2c1c(=O)[nH]c(=O)n2C | -13.6 | -3.8 | 68.8 | -12.2 | 5.5 | -4.1%
CC(C)c1ccc(NC(=O)Nc2nc(C(N)c3ccccc3)cs2)cc1 (stereo not given) | -20.8 | 9.7 | 22.1 | -13.2 | 1.6 | -1.6%
O=C(Nc1ccc(N2CCCC2)cc1)c1cccc(Cl)c1 | -20.2 | -2.5 | -16.7 | 0.0 | 0.7 | 16.5%
Cc1nn(-c2ccccc2)c(Cl)c1C(=O)NCC(C)c1ccccc1 (stereo not given) | 13.6 | -1.4 | -4.0 | 7.4 | 0.6 | 0.4%
CCc1nnc(SCc2nc(-c3cccc(Cl)c3)oc2C)c2cc3sc(C)cc3n12 | / | / | 9.2 | / | -0.5 | 0.3%
COC(=O)c1ccc(N=Cc2c(-c3ccccc3)[nH][nH]c2=O)cc1 | -2.6 | -2.0 | -1.1 | 3.6 | 1.1 | 2.1%
O=C(c1ccc(S(=O)(=O)N2CCCC2)cc1)N1CCCCCC1 | 10.8 | -0.1 | -2.5 | 11.5 | -0.3 | 0.1%
O=C(O)CSc1ncnc2sc3c(c12)CCCC3 | 1.5 | -4.9 | -6.0 | 0.1 | 0.9 | -0.6%
CCNC(=O)CN(c1ccc(OC)c(OC)c1)S(=O)(=O)c1ccccc1 | -0.5 | -3.1 | 27.2 | 6.5 | -0.5 | -1.5%
COc1ccc(N(CC(=O)Nc2cccc(F)c2)S(=O)(=O)c2c(C)[nH]c(=O)[nH]c2=O)cc1 | -9.5 | 1.5 | -3.9 | -15.9 | -0.7 | 1.4%
Cc1onc(-c2ccccc2Cl)c1C(=O)Nc1ccc(-n2nncc2-c2ccco2)cc1 | -14.2 | -0.8 | 10.5 | -12.0 | 1.1 | 5.1%[38.3 µM]
O=C(/C(=C/c1cccnc1)n1ccnc1)c1ccc(Cl)cc1Cl | -2.4 | -2.8 | 18.4 | / | -0.8 | 0.8%
CCn1ccc(C(=O)Nc2ccc(S(=O)(=O)Nc3ccccc3OC)cc2)n1 | 4.2 | 1.9 | -13.9 | -6.1 | 0.7 | 2.3%
COc1cc2c(cc1NC(=S)NC(=O)/C=C/c1ccc(OC)c(OC)c1)oc1ccccc12 | -1.2 | -2.9 | -2.5 | -13.7 | 2.7 | 0.0%
COc1ccc(-c2nc(NC(=O)C3CC(=O)N(c4ccc5c(c4)OCCO5)C3)sc2C)cc1 (stereo not given) | -15.5 | 9.3 | 26.9 | -11.6 | -0.2&-0.6 | 1.6%&-0.1%
O=C(COC(=O)c1ccc(Cl)cc1[N+](=O)[O-])NCc1ccco1 | -6.3 | 10.7 | -21.0 | -8.1 | 2.6 | -0.3%
COc1ccc(S(=O)(=O)NCc2ccncc2)cc1NC(=O)c1ccccc1C | 5.1 | -0.7 | -19.4 | -2.6 | 1.6 | -1.6%
COC[C@@H]1CCCN1[C@@H]1CS(=O)(=O)N[C@H]1COCc1ccccc1 | 5.1 | -3.7 | / | 9.2 | -0.5 | 0.2%
Cc1ccc(S(=O)(=O)N2CCN(C(=O)COC(=O)c3c(C)noc3C)CC2)c(C)c1 | 13.3 | 2.7 | -5.7 | 7.0 | 2.0 | 0.3%
CC(=O)c1ccc(OCC(=O)N2CCN(S(=O)(=O)c3ccc(C)cc3C)CC2)cc1 | -1.5 | 2.8 | -4.9 | 5.8 | -0.6 | 1.5%
Cc1cccc(N2CCN(C(=S)NCCc3ccccc3)CC2)c1C | 4.8 | -1.2 | -4.2 | -0.4 | 0.3 | ?
N#Cc1ccccc1Sc1ccccc1C(=O)OCC(=O)NC1CCS(=O)(=O)C1 (stereo not given) | -4.1 | -0.9 | 12.4 | -10.9 | 0.0 | 0.9%
CN(C)C(=O)c1ccc(NC(=O)CSc2nnc(-c3ccc4c(c3)OCO4)o2)cc1 | -0.3 | -2.2 | -15.4 | -0.7 | -0.2 | 0.2%
COc1ccccc1NC(=S)N1CCN(C(=O)c2ccco2)CC1 | 14.0 | 0.8 | -4.6 | 16.0 | 0.6 | 0.3%
CCOC(=O)c1csc(NC(=O)c2ccccc2)n1 | 13.4 | -3.2 | -5.0 | -4.6 | 0.0 | 0.7%
CC(=O)NCCC(=O)N1CCCC(N(C)CCc2ccccc2)C1 (stereo not given) | -3.6 | -2.3 | ? | / | -0.3 | 0.2%
Cc1cc(F)ccc1S(=O)(=O)N1CCCOC1CNC(=O)C(=O)NCc1ccco1 (stereo not given) | 6.9 | 1.8 | 9.3 | 1.8 | 0.6 | 2.1%
CCN(CC)S(=O)(=O)c1ccc(NC(=O)[C@@H](NC(=O)c2cc(OC)cc(OC)c2)C(C)C)cc1 | 2.2 | 2.3 | -0.4 | / | 1.1 | 3.3%
Cc1ccc(NC(=O)CN2C(=O)C3(SCC(=O)N3c3cccc(Cl)c3)c3ccccc32)cc1C (stereo not given) | / | / | -23.4 | / | 2.2 | -4.8%
Cc1c(C(=O)N/N=C/c2ccncc2)nnn1-c1nonc1N | -0.2 | -2.3 | 3.7 | 5.3 | 1.2 | -0.4%

Arranged by the number under CtBP-E1A inh (largest number first): three from the list above.
SMILES,Six1-Eya2 blk,D2 agonist,TRPML1 blocker,CtBP-E1A inh,PINK1 modulator
COc1ccccc1NC(=S)N1CCN(C(=O)c2ccco2)CC1,14.0,0.8,-4.6,16.0,0.3%
Cc1cccc(N2CCN(C(=S)NCCc3ccccc3)CC2)c1C,4.8,-1.2,-4.2,-0.4,?
N#Cc1ccccc1Sc1ccccc1C(=O)OCC(=O)NC1CCS(=O)(=O)C1 (stereo not given),-4.1,-0.9,12.4,-10.9,0.9%

Additional structures.
SMILES | Six1-Eya2 blk | D2 agonist | TRPML1 blocker | CtBP-E1A inh | TRPML1 agonist | PINK1 modulator
COc1ccccc1CNC(=O)c1ccc2nc3[nH]c4ccccc4c3nc2c1 | -27.8 | 1.8 | -4.9 | 0.0 | 3.9 | -3.3%
Cc1cccnc1C1=NOC(Cc2ccccc2)C(=O)N1Cc1ccccc1F (stereo not given) | 5.3 | 5.2 | / | 4.9 | 0.0 | 0.1%
CCOC(=O)/C=C/c1cnn(-c2ccccc2)c1 | 2.7 | 0.9 | -5.2 | 11.7 | 1.7 | 1.2%
COc1ccccc1CNS(=O)(=O)c1cccs1 | 6.2 | 5.8 | -8.2 | 6.9 | -0.1 | 0.9%
CN(c1ccc(C(=O)Nc2cccc([N+](=O)[O-])c2)cc1)S(C)(=O)=O | -0.2 | -3.1 | -12.4 | -17.3 | -0.7 | 2.4%
CCc1nc(C)cn1S(=O)(=O)c1ccc(Cl)c(Cl)c1OC | / | / | 17.5 | / | 0.3 | 1.2%
COc1cc(-c2cnc3c(NC(C)=O)cc(-c4ccc(N5CCN(C)CC5)cc4)cn23)cc(OC)c1OC | ? | 6.2 | / | -23.0 | 1.8 | 0.5%
Clc1ccccc1/C=C/c1ccnc2ccccc12 | 8.5 | -5.6 | -3.7 | / | 0.7 | 5.7%
CC(C)CN(C(=O)COC(=O)c1ccccc1Sc1ccccc1C#N)C1CCS(=O)(=O)C1 (stereo not given) | 2.2 | -1.0 | -3.0 | -6.0 | 1.4 | -1.7%
COc1ccc(CCNc2oc(-c3ccco3)nc2C#N)cc1 | -14.5 | 1.6 | -0.4 | 1.4 | -0.2 | -0.3%[38.3 µM]
CCC(C)c1ccccc1NC(=O)COC(=O)C1=COCCO1 (stereo not given) | 1.9 | -0.9 | 8.2 | 6.7 | -0.8 | 3.5%
CCN1CCN(C(=S)Nc2sc(C)c(-c3ccccc3)c2C(=O)OC)CC1 | -15.0 | -6.2 | 8.9 | -22.4 | -0.4 | 2.4%
COc1ccc(C(C(=O)NC(C)(C)C)N(C(=O)CNC(=O)c2cccs2)c2ccc(C)cc2)cc1OC (stereo not given) | 5.5 | -3.3 | -6.5 | 5.9 | -0.6 | 2.1%[38.3 µM]
Cc1cc(Cl)ccc1OCC(=O)Nc1cccnc1 | 4.0 | 3.2 | -4.5 | -13.0 | 2.2 | -1.8%
Cc1ccc(C(=O)NCCc2nnc3ccc(SCC(=O)Nc4cc(C)on4)nn23)cc1 | 0.8 | -2.6 | 12.9 | -2.8 | -0.3 | 0.7%
Cc1ccsc1CN1CCc2nc(N3CCN(c4ccccc4F)CC3)ncc2C1 | / | / | -10.1 | / | -0.3 | 3.2%
COc1ccc(/C=C(\NC(=O)c2ccc(OC)c(OC)c2)C(=O)NCCc2c[nH]c3ccccc23)cc1 | -14.6 | -1.2 | 3.6 | -20.0 | 0.1 | 3.8%
Oc1c(C(c2ccco2)N2CCN(C(c3ccccc3)c3ccccc3)CC2)sc2ncnn12 (stereo not given) | -0.4 | 1.0 | 1.7 | -14.8 | 0.9 | 0.3%
C=CCn1c(CCc2cc(C(C)(C)C)c(O)c(C(C)(C)C)c2)n[nH]c1=S | 4.0 | -5.5 | 25.1 | 3.3 | 3.1 | 4.6%
NNC(=O)C(Cc1ccc(O)cc1)N1Cc2ccccc2C1=O (stereo not given) | -2.5 | 2.2 | -7.3 | 2.1 | 2.2 | -2.4%
COc1ccc(S(=O)(=O)N2CCCCCC2)cc1NC(=O)c1ccccc1 | -2.7 | 2.5 | 43.8 | -0.4 | 1.0 | 5.1%
Clc1cccc(Oc2ncccn2)c1 | -5.7 | -1.8 | 5.9 | 0.0 | 1.5 | 1.5%
COC(=O)c1ccc(CNC(=O)COC(=O)CNS(=O)(=O)c2ccc(C)cc2)cc1 | -8.4 | -1.3 | 26.7 | -3.9 | -0.1 | -0.4%
O=C(NCCCN1CCOCC1)c1ccccc1 | 5.0 | -1.3 | 2.6 | 3.5 | 0.1 | -0.9%
CCN1C(=O)[C@H]2[C@H]3CN=C(SCC(=O)c4ccccc4)N3[C@@](CC)(C(=O)OC)[C@H]2C1=O | -0.9 | -3.5 | -5.4 | -1.7 | 1.1 | 1.6%
CS(=O)(=O)N(CC(=O)NC1CCCC1)c1ccc2c(c1)OCCO2 | 1.6 | -2.7 | 7.8 | 6.5 | -0.7 | 0.3%[38.3 µM]
COc1ccccc1N1CCN(S(=O)(=O)c2c(C)[nH]c(C)c2C(=O)N2CCCCC2)CC1 | 4.2 | -6.1 | -7.4 | 0.6 | 1.9 | 2.8%
O=C(NCC(=O)N(Cc1ccco1)C(C(=O)NC1CCCC1)c1ccncc1)c1cccs1 (stereo not given) | 2.4 | -2.7 | -7.9 | -0.5 | -0.6 | -1.4%
COc1cc(CN2CCN(S(=O)(=O)c3ccccc3)CC2)cc(OC)c1O | / | / | -18.9 | / | -0.5 | 0.0%
Cc1ccc(S(=O)(=O)N2CC3(O)CN(C(=O)OC(C)C)N(C(=O)OC(C)C)CC3(OC(=O)NCc3ccccc3F)C2)cc1 (stereo not given) | -0.6 | 7.2 | 9.5 | 4.1 | 2.3 | 1.0%
CCOCCCNC(=S)N1CCCC(c2nc3ccc(C)cc3[nH]2)C1 (stereo not given) | -0.2 | -9.2 | -18.1 | / | 4.5 | -1.3%
CCOc1cc(N2CCOCC2)c(OCC)cc1NC(=O)CN1C(=O)C2C3C=CC(C3)C2C1=O (stereo not given) | 27.1 | -18.7 | 24.6 | -1.6 | 0.6 | -0.1%
